Screening results from PubChem BioAssay.
WNV protease inh = WNV NS2B-NS3 proteinase inhibition; 0.18% of 65,000 active; P06935; WNV NS2B-NS3 protease, fluorogenic substrate Ex360/Em465; active compounds read low; z-score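 (tested at a level between 10 and 100 µM)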;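 active = z-score at -3 or under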;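 note: score is relative to mean and spread of the compound wells of a plate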
Target sequence (P06935 1371-1501 limits assumed): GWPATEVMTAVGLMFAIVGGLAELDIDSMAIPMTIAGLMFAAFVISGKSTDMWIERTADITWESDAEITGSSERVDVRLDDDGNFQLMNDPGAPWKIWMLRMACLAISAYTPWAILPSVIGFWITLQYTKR
Target sequence (P06935 1502-1679 limits assumed): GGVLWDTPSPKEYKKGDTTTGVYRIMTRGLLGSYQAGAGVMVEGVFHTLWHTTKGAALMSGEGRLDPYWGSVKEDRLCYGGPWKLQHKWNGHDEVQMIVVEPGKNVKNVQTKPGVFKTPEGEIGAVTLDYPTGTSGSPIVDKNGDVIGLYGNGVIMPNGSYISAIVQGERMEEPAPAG
MT1-MMP reporter = MT1-MMP gene expression reporter suppression – cell-based, luciferase reporter, luminescence (AID 618) | MT1-MMP promoter luciferase reporter cells, luminescence | calls from a first round at 10 µM; hits with a dose series show EC50 in µM | 0.62% of 87,000 active;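 active = over half of the reporter light lost at 10 µM or EC50 under 50 µM; inactive = the rest and hits that failed the dose series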;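 note: actives suppress MT1-MMP promoter-driven transcription so potencies describe inhibitors; HT1080 fibrosarcoma cells; overnight exposure; toxic or luciferase-blocking compounds were not removed from the actives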
Hsc70 = small molecules displacing fluorescent ligand from Hsc70 – biochemical, fluorescence polarization, primary screen (AID 568); 83,000 tested, under 10 active; one-dose displacement, % at 20 µM; IC50 in µM for titrated hits; Hsc70 fluorescence polarization, probe displacement; higher % means a stronger effect; strong numbers were not always called active;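 active = displacement above 50% without optical interference and an IC50 on retest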;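 note: ATPase domain with a fluorescein-tagged ATP probe; 0% = vehicle and 100% = excess ADP; read after one hour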
* = called active by the depositor; i = inactive; / = no result given; + = active, no number. The list is partial (hit frequency here may not be typical).

canonical_smiles	WNV protease inh	MT1-MMP reporter	Hsc70
Cc1cccnc1-n1c(-c2ccco2)nc2ccccc2c1=O	-0.98	i	-3.6%
CC1CCN2c3nc4ccccn4c(=O)c3CC3(C(=O)N(C)C(=O)N(C)C3=O)C2C1 (centres undefined)	-0.88	i	-6.1%
COc1ccc(C(=O)CN2CCOCC2)cc1F	-0.07	i	1.8%
Nc1c(C(=O)NCc2ccco2)c2nc3ccccc3nc2n1Cc1ccc(F)cc1	0.13	i	-20.1%
Cc1ccc2c(c1)CC1(CN2C)C(=O)NC(=O)N(c2cccc(C)c2C)C1=O (centres undefined)	-0.65	i	-1.1%
CCCCn1c(O)c(C(C)=NCc2cc(OC)cc(OC)c2)c(=O)[nH]c1=O	/	i	-2.7%
COc1ccccc1N1C(=O)NC(=O)C(CCc2ccncc2)(CCc2ccncc2)C1=O	/	i	1.3%
Clc1ccc(COC(Cn2ccnc2)c2ccc(Cl)cc2Cl)c(Cl)c1 (centres undefined)	0.19	i	1.0%
COc1ccccc1N1CCN(Cc2c(F)cccc2F)CC1	-0.29	i	2.7%
CCCOC(=O)COc1cc(C)cc2oc(=O)c3c(c12)CCC3	-0.54	i	1.9%
CCOC(=O)C1=C(N)OC2=C(C(=O)CCC2)C12C(=O)Nc1ccccc12 (centres undefined)	-0.43	i	-3.5%
CC12CCC(=O)C=C1CCC1C2CCC2(C)C(O)CCC12 (centres undefined)	-0.52	i	4.3%
OCC12COC3c4ccccc4C(OC1)N32 (centres undefined)	-0.1	i	9.1%
CC(c1ccccc1)n1cncc1C(=O)O (centres undefined)	/	i	5.2%
CCN(CC)CCCN=Cc1c(O)n(CCc2ccc(OC)c(OC)c2)c(=O)[nH]c1=O	1.38	i	-12.4%
CC(CCc1ccccc1)NC(C)C(O)c1ccc(O)cc1 (centres undefined)	0.71	i	-2.8%
NC(=O)CSP(=O)(c1ccccc1)c1ccccc1	-0.35	i	0.1%
C=Cn1ccnc1P(=S)(c1c(C)nn(-c2ccccc2)c1C)c1nccn1C=C	-0.21	i	-3.1%
CCN(CC)C1=NC(=[N+](CC)CC)c2ccccc21	/	i	2.6%
Clc1ccc(CSC(Cn2ccnc2)c2ccc(Cl)cc2Cl)cc1 (centres undefined)	-0.6	i	-1.9%
Cc1[nH]c2c(Cl)cccc2c1CCN	-0.00488	i	1.5%
O=C(c1ccc(CNS(=O)(=O)c2ccccc2)cc1)N1CCC2(CC1)OCCO2	0.04	i	-13.4%
N=C1C(c2ccccc2)=C(O)CN1Cc1ccco1	0.51	i	8.8%
Fc1ccc2c(c1)nnn2C1CCN(Cc2ccccc2)CC1	-1.18	i	-6.2%
CC(=O)OC1(Cc2ccccc2)CN2CCC1c1ccccc12 (centres undefined)	-0.16	i	6.5%
COc1cccc(N2CCN(Cc3cccc(Cl)c3)CC2)c1	2	i	10.7%
C=CCOC(=O)COc1cc(C)cc2oc(=O)c3c(c12)CCC3	-0.66	i	3.2%
Cc1ccccc1-c1nc(CS(=O)CC(=O)N2CCC3(CC2)OCCO3)c(C)o1 (centres undefined)	0.4	i	-3.7%
COc1ccc(N=C(C)c2c(O)n(C)c(=O)n(C)c2=O)c(OC)c1	0.12	i	-3.9%
Cc1cc(C(=O)N2CCC3(CC2)OCCO3)cs1	1.47	i	-2.1%
ON1C2CCCCC2N(O)C1c1ccccc1F (centres undefined)	/	i	1.6%
CC(=NCCN1CCCCC1)c1c(O)n(-c2ccc(Cl)cc2)c(=O)[nH]c1=O	/	i	0.8%
CCN(CC)CCN=C(C)c1c(O)n(-c2ccccc2OC)c(=O)[nH]c1=O	0.83	i	-0.3%
c1ccc(C2=NP(N3CCOCC3)(N3CCOCC3)=NC(N3CCOCC3)=N2)cc1	0.67	i	8.3%
Cc1cccn2c(=O)c3c(nc12)N1CCC(Cc2ccccc2)CC1C1(C3)C(=O)N(C)C(=O)N(C)C1=O (centres undefined)	-0.15	i	-11.6%
Cc1ccc(S(=O)(=O)Nc2cc(C(=O)N3CCC4(CC3)OCCO4)ccc2N2CCCCC2)cc1	-0.21	i	-1.4%
COc1ccc(CCn2c(O)c(C=NCc3ccc4c(c3)OCO4)c(=O)[nH]c2=O)cc1OC	0.91	i	-5.0%
CCc1nc(N2CCNCC2)c(C#N)c2c1CSC(C)(C)C2	-0.44	i	4.7%
CCN1CCN(Cc2cc(Br)ccc2O)CC1	/	i	6.3%
CC(=NCc1ccco1)c1c(O)n(-c2ccccc2)c(=O)[nH]c1=O	/	i	-2.4%
Nc1c(C(=O)OCC2CCCO2)c2nc3ccccc3nc2n1Cc1cccs1 (centres undefined)	2.15	i	4.1%
CC(=O)C1C2c3ccccc3OC1(C)N=c1s/c(=C/c3cnn(C)c3)c(=O)n12 (centres undefined)	-0.72	i	-8.5%
NC(=O)CN1CC(c2ccccc2)CC1=O (centres undefined)	-1.49	i	0.5%
Cc1nn(C2CCOC(C)(C)C2)c2c1C(c1ccc(OC(C)C)cc1)SCC(=O)N2 (centres undefined)	/	i	2.5%
O=C(Cn1c2c(c(-c3ccccc3Cl)cc1=O)CCC2)N1CCC2(CC1)OCCO2	-0.23	i	-0.3%
CC(C(=O)c1c[nH]c2ccccc12)N1CCc2ccccc2C1 (centres undefined)	-1.49	i	5.0%
Cn1c(O)c(C=NC2CCN(Cc3ccccc3)CC2)c(=O)n(C)c1=O	0.24	i	-1.2%
Cc1ccc(S(=O)(=O)N2CCC(C(=O)N3CCC4(CC3)OCCO4)CC2)cc1	-1	i	-4.9%
Cc1[nH]c2c(C(F)(F)F)cccc2c1CCN	0.28	i	4.5%
CCC(=NCc1ccco1)c1c(O)[nH]c(=O)[nH]c1=O	2.92	i	-2.9%

In the list so far, three contain a carbonyl joined to an NH by a bond outside any ring.
canonical_smiles	WNV protease inh	MT1-MMP reporter	Hsc70
Nc1c(C(=O)NCc2ccco2)c2nc3ccccc3nc2n1Cc1ccc(F)cc1	0.13	i	-20.1%
NC(=O)CSP(=O)(c1ccccc1)c1ccccc1	-0.35	i	0.1%
NC(=O)CN1CC(c2ccccc2)CC1=O (centres undefined)	-1.49	i	0.5%

(list continues)
canonical_smiles	WNV protease inh	MT1-MMP reporter	Hsc70
CC(=NCCC1=CCCCC1)c1c(O)n(C)c(=O)n(C)c1=O	0.12	i	-2.0%
Cc1cccc(C)c1NC(=O)CN(C)CC(=O)Nc1ccc(C#N)c(Cl)c1	/	i	-0.2%
C[C@H]1CCC[C@@H](O)CCC/C=C/c2cc(O)cc(O)c2C(=O)O1	-0.53	i	-0.1%
CCN1CCN(Cc2ccc(C)cc2C)CC1	-0.22	i	-0.2%
CCc1ccc(C(=O)C23CN4CN(CN(C4)C2)C3)cc1	/	i	-1.8%
COc1ccc(CN2CC3CC(C2)c2cccc(=O)n2C3)cc1OC (centres undefined)	0.24	i	4.4%
Cn1c(O)c(C(=O)c2ccccc2)c(=O)n(C)c1=O	1.15	i	4.1%
CCOC(=O)C1=C(C)OC(N)=C(C(=O)OC)C12C(=O)Nc1ccc(Br)cc12 (centres undefined)	-1.09	i	-0.5%
CCOC(=O)C1C(=O)NC2(C)CC1c1cc(OC)ccc1O2 (centres undefined)	0.81	i	0.6%
O=C1C2CCCN2C(c2cccnc2)N1c1nccs1 (centres undefined)	-1.01	i	1.8%
O=S1(=O)CC2(N3CCOCC3)CCCCCCC21 (centres undefined)	-0.66	i	6.7%
CCNc1ccc(P(=S)(N(C)C)N(C)C)cc1	-0.68	i	0.8%
CN(C)CCN=Cc1c(O)n(Cc2ccco2)c(=O)[nH]c1=O	/	i	-4.5%
CCOC(=O)C(O)(c1ccc(N(CC)C(=O)OC)cc1)C(F)(F)F (centres undefined)	0.87	i	-0.3%
C[C@H]1OC[C@@H](C[N+](C)(C)C)O1	-1.04	i	1.0%
CCCCCn1c(N)c(C(=O)NCCN2CCOCC2)c2nc3ccccc3nc21	0.53	i	1.3%
CC1(C)CC(=O)C(C=NCCN2CCN(C(=O)Cc3ccccc3)CC2)=C(O)C1	-1.41	i	11.9%
CN1C(=O)N(C)C(=O)C(CCc2ccccn2)(CCc2ccccn2)C1=O	0.39	i	-2.6%
CCOC(=O)c1cc(C)n(CCc2cnc[nH]2)c1C	0.72	i	2.1%
FC(F)(F)c1ccc2c(c1)NP(=S)(N1CCOCC1)c1nccn1-2 (centres undefined)	0.66	i	-1.8%
CC1(C)CN=C(Nc2ccccc2C(F)(F)F)S1	-0.03	i	0.5%
CCN(CC)CCN=Cc1c(O)n(CCC2=CCCCC2)c(=O)[nH]c1=O	-0.62	i	1.9%
COCCOC(=O)c1c(N)n(Cc2ccc(OC)cc2)c2nc3ccccc3nc12	1.2	i	-0.1%
O=c1c2cc(Cl)cc(Cl)c2nc(CN2CCOCC2)n1-c1ccccc1F	-0.35	i	0.8%
O=C1c2ccccc2C(=O)N1Cc1nc2ccccc2c(=O)n1-c1ccccn1	0.72	i	0.8%
CCCCn1c(O)c(C=Nc2c(C)n(C)n(-c3ccccc3)c2=O)c(=O)[nH]c1=O	-0.94	i	7.0%
CCN(CC)C(=O)c1ccc(NC(=O)CSc2nnnn2-c2cc(OC)ccc2OC)cc1	0.4	i	-7.3%
CCCCN=Cc1c(O)n(-c2c(C)cc(C)cc2C)c(=O)[nH]c1=O	-0.15	i	-18.6%
CN(C)C(=O)Oc1ccc2ccccc2c1Cl	/	i	2.6%
NCCc1c[nH]c2ccc(F)cc12	-1.4	i	0.5%
CCOc1cccc(OCC)c2c(C)[n+](CC3CCCO3)c(C)c1-2 (centres undefined)	/	i	0.7%
CCOC(=O)C1=C(N)OC2=C(C(=O)CCC2)C12C(=O)N1c3c(ccc(C)c32)C(C)=CC1(C)C (centres undefined)	-0.71	i	-3.7%
COC(=O)c1ccccc1-n1c(C)nc2ccccc2c1=O	0.49	i	-5.1%
Nc1ccc([As](=O)(O)O)cc1	-0.75	i	-0.9%
COc1ccc(N2C(=O)CC(=O)NC2=O)cc1	-1.4	i	-11.6%
CCN(CC)CC(=O)Nc1ccc(Cl)cc1C(=O)c1ccccc1	/	i	3.1%
CNCC(O)c1ccc(O)cc1 (centres undefined)	1.17	i	1.0%
CCc1sc(C(=O)N2CCC3(CC2)OCCO3)cc1Br	2	i	5.3%
O=C(c1ccc2nc3ccc(Cl)cc3c(=O)n2c1)N1CCC2(CC1)OCCO2	0.41	i	-4.7%
CCC(CC)C(=O)NC1CCSC1=O (centres undefined)	/	i	1.2%
CC1(C)CN=C(Nc2ccc(F)c(F)c2)S1	0.81	i	8.0%
CCOc1cc(C2NCc3ccccc3-n3cccc32)ccc1O (centres undefined)	-1.05	i	-3.1%
CC(C)OC(=O)c1c(N)n(Cc2ccco2)c2nc3ccccc3nc12	2.61	i	6.8%
C=CCN1C(=O)NC(=O)C(Cc2ccc(OC)c(OC)c2)C1=O (centres undefined)	-0.37	i	-6.9%
CN(C)C(=O)Oc1ccc(Cl)c2ccccc12	-0.62	i	1.8%
CC(C)OCCCNC(=O)c1c(N)n(CC2CCCO2)c2nc3ccccc3nc12 (centres undefined)	1.41	i	-1.8%
CN1C(=O)N(C)C(=O)C2(Cc3c(ccc4ccccc34)N(C)C2)C1=O	-0.32	i	1.6%
O=c1[nH]c(=O)n(CCc2ccc(F)cc2)c(O)c1C=NCCCN1CCOCC1	-0.62	i	-4.9%
Cc1cc(C)n2nc(SCC(=O)N3CCC4(CC3)OCCO4)nc2n1	-1.09	i	1.6%
COc1cc2[nH]c(=O)n(-c3ccccc3)c(=O)c2cc1OC	1.03	i	-1.5%

Next part
canonical_smiles	WNV protease inh	MT1-MMP reporter	Hsc70
CC(C)CCC1(CN2CCCC2=O)C(=O)NC(=O)NC1=O	/	i	5.5%
CC(C)CCC1(CCc2ccncc2)C(=O)NC(=O)NC1=O	/	i	3.6%
OC1(CN2CCOCC2)C2CC3CC(C2)CC1C3 (centres undefined)	0.64	i	2.1%
CC(=O)OC1N=C(c2ccccc2)c2cc(Br)ccc2NC1=O (centres undefined)	/	i	0.3%
CN(C)c1ccc(P(=S)(N(C)C)N(C)C)cc1	0.9	i	1.7%
CC(=O)c1ccccc1NC(=O)C1C2CCC(O2)C1C(=O)O (centres undefined)	0.41	i	2.6%
COCCOC(=O)c1c(C)n(C)c2ccc(OC(=O)N(C)C)cc12	/	i	-0.5%
CCOc1ccc(C2C(C#N)=C(N)Oc3c2c(=O)oc2ccccc32)cc1 (centres undefined)	/	i	4.2%
Cc1nc2c(=O)n(C)c(=O)nc-2n(C)n1	/	+	0.5%
O=C1C2CCCN2C(c2ccc(Cl)c(Cl)c2)N1c1ccccn1 (centres undefined)	0.05	i	-1.1%
Cc1ccc(CS(=O)(=O)CCC(=O)N2CCC3(CC2)OCCO3)cc1	-0.48	i	-3.9%
CCOC(=O)c1c(C)n(CCOC)c2ccc(O)cc12	-0.62	i	4.9%
